AID923: qHTS Assay for Allosteric/Competitive Inhibitors of Caspase-1: Spectroscopic Profiling in AFC Spectral Region; Potency, µM (doses to about 57.5 µM), for inactives: at the highest dose fluorescence increase, hits mostly activators; compound fluorescence, AFC spectral region (405/520 nm); almost no hit is shown here; 1.1% of 75,000 active; active means well fitted activation curve with a large enough effect; inconclusive means small, poorly fitted or top-dose-only effect;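 further: potency means the concentration at half of the fitted maximal effect; 0% is about no effect; scaled to a free AFC standard on each plate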
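Compound autofluorescence profiled at 405 nm ex/520 nm em during kinetic caspase 1 run (50 nM enzyme, 5 uM Ac-WEHD-AFC, HEPES pH 7.5, 10 mM DTT). Titration up to 57 uM; baseline from regression intercept, normalized to AFC standard curve.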
A488 fluor: qHTS Assay for Spectroscopic Profiling in A488 Spectral Region; compound autofluorescence, A488 spectral region, dye equivalency; hits give high values; max dye equivalency, M; 0.1% of 59,000 active; AID 591, 2007; active = above 10 nM dye equivalent; inconclusive = 1 to 10 nM; inactive = 1 nM or less; about half of its hits are not listed in these tables;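 further: highest value over a series up to 38 µM; compound alone in buffer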
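Spectroscopic profiling in the A488 region: compounds in pH 8.0 Tris (100 mM), 15 min RT, CCD imaging with 480 nm excitation and 540 nm emission; responses normalized against A488 dye standards.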
Resorufin fluor: qHTS Assay for Spectroscopic Profiling in Resorufin Spectral Region. AID 588, 2007. max dye-equivalent concentration, M. 0.04% of 59,000 active. Compound fluorescence, resorufin region 547/598 nm, buffer; hits give high values; active = above 10 nM dye equivalent; inconclusive = 1 to 10 nM; inactive = 1 nM or less; a few of its hits are not listed in these tables; further: highest value over a series up to 38 µM
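Compounds in 100 mM Tris buffer, pH 8.0, incubated 15 min at room temperature, then read with 547 nm excitation and 598 nm emission filters. Fluorescence was converted to dye-equivalent concentration using an on-plate six-point resorufin standard curve.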
A647 fluor: qHTS Assay for Spectroscopic Profiling in A647 Spectral Region | 59,000 tested, under 10 active | Compound fluorescence, A647 channel (570/671 nm), Tris buffer | AID 592, 2007 | max dye-equivalent concentration, M; active means above 1 µM dye equivalent; inconclusive means 0.1 to 1 µM; inactive means 0.1 µM or less;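 further: values scaled relative to a standard on each plate; highest value over a series up to 38 µM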
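Buffer was dispensed, compounds and Alexa 647 standards were pin-transferred, and plates sat 15 min at room temperature. Intensity at 570/671 nm was then converted to dye-equivalent concentration using the plate's A647 standard curve.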
TSHR agonist: qHTS Assay for Agonists of the Thyroid Stimulating Hormone Receptor; Thyrotropin receptor (Homo sapiens), P16473; HEK293-CNG-TSHR cells (CNG channel as cAMP sensor), membrane potential dye, cAMP; Potency, µM (highest dose often 57.1 µM), without a hit: at the top dose activation, most hits filed as activators; 0.48% of 73,000 active; AID 926, 2007; active = well fitted activation curve of enough size with the parental cells flat; inconclusive = any curve in the parental cells; inactive = parental cells flat and receptor cells flat or falling; further: potency means the concentration at half of the fitted maximal effect; % of control where 0% means no effect; weak receptor curves with flat parental cells got no call and are not listed
Target sequence (P16473 whole entry, looked up): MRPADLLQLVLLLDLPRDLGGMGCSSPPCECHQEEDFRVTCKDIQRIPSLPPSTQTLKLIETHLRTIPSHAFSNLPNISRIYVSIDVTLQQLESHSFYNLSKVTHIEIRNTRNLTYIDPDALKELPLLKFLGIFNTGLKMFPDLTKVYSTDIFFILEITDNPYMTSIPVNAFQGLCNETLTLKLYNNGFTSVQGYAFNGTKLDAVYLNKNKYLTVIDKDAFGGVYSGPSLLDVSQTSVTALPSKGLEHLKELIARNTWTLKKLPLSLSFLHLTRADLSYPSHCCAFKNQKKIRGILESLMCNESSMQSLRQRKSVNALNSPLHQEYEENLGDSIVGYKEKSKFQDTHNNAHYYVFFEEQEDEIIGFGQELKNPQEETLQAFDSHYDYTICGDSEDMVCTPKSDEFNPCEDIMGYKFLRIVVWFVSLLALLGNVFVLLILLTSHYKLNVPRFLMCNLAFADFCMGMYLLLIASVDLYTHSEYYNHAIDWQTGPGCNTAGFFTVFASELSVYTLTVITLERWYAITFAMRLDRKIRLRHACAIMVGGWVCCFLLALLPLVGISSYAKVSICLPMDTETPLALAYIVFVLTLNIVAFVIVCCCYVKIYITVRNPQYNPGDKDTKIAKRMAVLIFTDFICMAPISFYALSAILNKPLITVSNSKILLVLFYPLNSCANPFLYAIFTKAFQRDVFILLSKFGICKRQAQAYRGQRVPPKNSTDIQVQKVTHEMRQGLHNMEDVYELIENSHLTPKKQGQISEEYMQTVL
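HEK 293 cells stably expressing TSHR and a modified CNG channel, with CNG-only parental cells as counterscreen, were preloaded 60 min at room temperature with membrane potential dye containing 100 uM RO 20-1724. Compound exposure was 30 min, and depolarization was read as fluorescence at 590 nm.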
* hit, by the source's call; i = inactive; ? = inconclusive; . = not tested or not shown; [ ] = remark or other dose.

The line under a structure holds: AID923, A488 fluor, Resorufin fluor, A647 fluor, TSHR agonist
CC(=O)N1CCCc2cc(S(=O)(=O)NC(C(=O)NC(C)c3ccccc3)C(C)C)ccc21 (stereo not drawn)
→ 2.5%, i, i, 9.5e-09, ?
CCC(C)N1C(=O)C2C(C(=O)Nc3cccc(OC)c3)C3C=CC2(O3)C1C(=O)NC1CCCCC1C (stereo not drawn)
→ 0.3%, i, i, 2.2e-09, 2%
Nc1nc(-c2cccs2)c(NC(=O)c2ccccc2)s1
→ -3.2%, i, i, 1.8e-08, -2%
O=C(Oc1ccc(-c2nc(-c3ccccn3)no2)cc1)c1ccccc1
→ -1.6%, i, i, 6.7e-09, -4%
Cc1ccc2oc3c(c(=O)c2c1)C(c1cccc(Br)c1)N(Cc1ccco1)C3=O (stereo not drawn)
→ 0.1%, i, i, 1.2e-08, 19%
COc1cccc(-c2ccc3ncnc(NCc4cnc(C)cn4)c3c2)c1
→ 2.0%, i, i, 1.3e-09, 15%
O=C(NCCCN1CCN(c2ccccc2)CC1)Nc1ccccc1C(F)(F)F
→ 1.4%, i, i, 2.3e-08, 3%
CCOc1ccccc1N1CCN(S(=O)(=O)CC)CC1
→ -0.4%, ., ., ., 5%
Cc1c(NC(=O)CSc2nnc3sc4ccccc4n23)c(=O)n(-c2ccccc2)n1C
→ -0.6%, i, i, 5e-09, 1%
O=C1NC(=O)C(c2ccccc2[N+](=O)[O-])=C1Nc1ccc(O)c(Cl)c1
→ -3.6%, i, i, 5.9e-09, 21%
COCCn1c(SCC(=O)N2CCCC2)nnc1C(C)C
→ -0.5%, i, i, 4.1e-09, -2%
Cc1ccc2cc(C#N)c(N3CCCN(C(=O)C4CCCO4)CC3)nc2c1 (stereo not drawn)
→ 10%, i, i, 5.4e-09, -7%
Cn1c(=O)n(C)c(=O)n(CC(=O)N2CCCCC2)c1=O
→ 2.3%, i, i, 1.4e-08, 5%
COCCCn1c2nc3ccccc3nc2c2c(=O)n(Cc3ccc(Cl)cc3)c(C)nc21
→ 11%, i, i, 2.4e-08, .
O=S(=O)(c1ccc(N2CCOCC2)cc1)N1CCOCC1
→ -1.7%, i, i, 3.5e-09, 0%
c1ccc(-c2nnc3sc(-c4csc5c4CCCC5)nn23)cc1
→ -6.4%, i, i, 1.9e-08, ?
OC1CCN(c2ncnc3c2nnn3Cc2c(F)cccc2Cl)CC1
→ -1.7%, i, i, 6.9e-08, ?
CCc1nn(CC(=O)O)c(=O)c2ccccc12
→ -1.5%, i, i, 1e-09, -18%
O=C(/C=C/c1ccc(O)c(O)c1)O[C@@H](C(=O)O)[C@@H](OC(=O)/C=C/c1ccc(O)c(O)c1)C(=O)O
→ 3.0%, ., ., ., -1%
O=C1CC(c2ccccc2)CC(O)=C1C=NCCCO (stereo not drawn)
→ -0.3%, ., ., ., ?
O=C(NCCNC(=O)c1cccs1)c1ccco1
→ -0.5%, i, i, 4.1e-08, -6%
CCCn1c(=O)c2ccccc2n2c(SCC(=O)c3ccccc3)nnc12
→ 0.3%, i, i, 1e-09, ?
COc1cc(C2Nc3ccc4ncccc4c3C3=C2C(=O)CCC3)ccc1O (stereo not drawn)
→ 1.8%, i, i, 5.1e-09, ?
CCS(=O)(=O)n1nc(-c2ccccc2)cc1N
→ -2.4%, ., ., ., 17%
Cc1ccc(C)c(CN2C(=O)C3(OCCCO3)c3ccccc32)c1
→ 0.4%, i, i, 2.9e-08, ?
N[C@@H](C(=O)N[C@@H]1C(=O)N2C(C(=O)O)=C(Cl)CS[C@H]12)c1ccccc1
→ ., i, i, 1.6e-08, .
CCN(CC)c1ccc(NC(=O)c2cnc3ccccn3c2=O)c(C)c1
→ -0.4%, ., ., ., 1%
OC(COc1ccc(Cl)c2ccccc12)CN1CCN(c2ccccn2)CC1 (stereo not drawn)
→ -0.1%, i, i, 5.1e-08, 16%
COCCN(CCOC)S(=O)(=O)c1ccc(C(=O)Nc2nc(-c3ccncc3)cs2)cc1
→ -0.3%, i, i, 6.7e-09, .
N#Cc1nc(-c2ccc(OCc3ccccc3)cc2)oc1NCCCn1ccnc1
→ 2.3%, i, i, 2.5e-08, -13%
CCOc1cccc(OCCOCCN2CCCC2)c1
→ -1.0%, ., ., ., 6%
COC(=O)C1CCN(C(=O)CSc2nnc(-c3ccncc3)o2)CC1
→ -0.3%, i, i, 5.1e-08, -3%
O=C(O)c1ccccc1S(=O)(=O)c1ccccc1CO
→ -0.8%, i, i, 1e-09, 3%
CN(C)CCNC(=O)C(C(=O)c1ccc(F)cc1)n1ccccc1=O (stereo not drawn)
→ -2.5%, i, i, 1e-09, 12%
CCOC(=O)c1[nH]c(C)c(C(=O)c2cc(F)ccc2F)c1C
→ -1.2%, i, i, 4e-08, 32µM*
CC(C)NC(=O)CN1CCC(O)(c2ccccc2)CC1
→ 0.2%, i, i, 2.4e-09, -1%
CC(C)(C)c1ccc(S(=O)(=O)N2CCN(CCC#N)CC2)cc1
→ -1.1%, ., ., ., ?
O=C(c1cccs1)N(C(=O)c1cccs1)c1ccccn1
→ 0.4%, ., ., ., -8%
COc1ccccc1CN1CC[C@@]2(CCCN(C(=O)c3c(C)noc3C)C2)C1
→ 1.3%, i, i, 2.4e-08, -1%
CCCCn1c(=O)n(C)c(=O)c2c(C(F)(F)F)cc(-c3ccncc3)nc21
→ -3.5%, i, i, 3.8e-08, ?
CCc1nc2c(cnn2-c2ccc(Cl)cc2)c(=O)n1-c1ccc2c(c1)OCCO2
→ 1.6%, i, i, 1e-09, ?
Cc1ccc(-c2csc3ncnc(Sc4nnc(CN5CCCCCC5=O)o4)c23)cc1
→ -1.5%, i, i, 1.6e-08, 11%[11.4 µM]
CC1(C)Cc2c(sc(NC(=O)c3ccco3)c2C#N)CO1
→ -0.7%, i, i, 5.5e-09, 10%
CC1CCN(c2ccccc2N)CC1
→ -2.2%, i, i, 1e-08, -1%
Cc1ccc(C(C)C)c(OCC(O)CN2CC(C)OC(C)C2)c1 (stereo not drawn)
→ -0.9%, i, i, 7.5e-09, ?

Further results follow.
| molecule | AID923 | A488 fluor | Resorufin fluor | A647 fluor | TSHR agonist |
| --- | --- | --- | --- | --- | --- |
| CCCCOC(=O)c1ccc(NC(=O)c2cnccn2)cc1 | -0.8% | i | i | 8.9e-09 | -1% |
| CSc1nnc(-c2ccco2)n1-c1ccccc1 | 1.2% | . | . | . | 19% |
| CC(C)Sc1nc2c(c(=O)n(C)c(=O)n2C)n1Cc1ccc(Cl)cc1 | 0.7% | i | i | 1.6e-08 | ? |
| CCCNS(=O)(=O)c1ccc2c(c1)CCCN2C(C)=O | -1.5% | i | i | 1e-09 | -6% |
| Cc1c(/C(O)=C2\C(=O)C(=O)N(CCCN(C)C)C2c2ccccc2)cnn1-c1ccccc1 (stereo not drawn) | . | i | i | 1e-09 | . |
| C=CCSC1=C(C#N)C(c2ccccc2)CC(=O)N1 (stereo not drawn) | 0.6% | i | i | 2.1e-09 | 18% |
| CC(=O)c1cc2c(=O)c3ccccc3oc2nc1C | . | i | i | 1.4e-09 | . |
| COc1ccccc1CCn1c(=O)c(C)nc2cncnc21 | 1.6% | i | i | 1e-09 | ? |
| Cc1c(C(=O)O)cnc2cc(-c3ccc(Cl)cc3)nn12 | -1.6% | . | . | . | -8% |
| CCOC(=O)N1CCN(C(=O)c2ccc3c(SCC(=O)O)c4c(nc3c2)CCC4)CC1 | 1.6% | . | . | . | 63% |
| Cc1ccc(S(=O)(=O)N2CCCC2C(=O)Nc2nc3ccccc3s2)cc1 (stereo not drawn) | 9.1% | . | . | . | ? |
| COC(=O)c1ccc(OCC(=O)c2ccc(O)cc2O)cc1 | -0.6% | i | i | 4.1e-08 | 16% |
| Cc1cc(C(=O)Nc2cnn(Cc3ccc(Cl)cc3Cl)c2)no1 | -1.1% | i | i | 7.7e-09 | 0% |
| COc1cccc(NC(=O)CCP(C)(=O)O)c1 | 0.2% | i | i | 3.8e-08 | 3% |
| CC(C)C(NC(=O)c1ccccc1NC(=O)c1ccco1)C(=O)O (stereo not drawn) | 2.7% | i | i | 1.8e-09 | ? |
| Cc1cc(C)n(C(=O)CCC2COc3ccccc3O2)n1 (stereo not drawn) | -0.2% | i | i | 1e-09 | 5% |
| O=c1cc(N2CCc3ccccc3C2)[nH]c(=O)n1C1CCCCC1 | -1.0% | i | i | 1.8e-08 | -14% |
| O=C(NC1CCCCC1)C1CCN(S(=O)(=O)N2CCCCCC2)CC1 | -0.4% | i | i | 1e-09 | -1% |
| O=C(CCn1c(=O)[nH]c2ccccc2c1=O)NCCCN1CCN(c2cccc(Cl)c2)CC1 | 0.4% | i | i | 1e-09 | 1% |
| O=C(Nc1ccc(Oc2ccc(NC(=O)c3ccco3)c(NC(=O)c3ccco3)c2)cc1)c1ccco1 | -2.6% | i | i | 2.7e-09 | 6% |
| Cc1ccc(NC(=O)C2CCN(S(=O)(=O)c3cnc[nH]3)CC2)nc1 | 2.2% | i | i | 2.4e-09 | 2% |
| O=S(=O)(c1ccc2c(c1)OCCO2)N(Cc1ccc(F)cc1)Cc1nnc(-c2cccs2)o1 | 2.3% | i | i | 2.1e-08 | ? |
| CC1(C)C(c2ccccc2)=NC(c2ccc(F)cc2)N1O (stereo not drawn) | -1.1% | i | i | 2.4e-08 | 2% |
| COc1cc2c(cc1OC)CN(C(=O)c1ccccc1C(=O)O)CC2 | -1.4% | i | i | 7.7e-09 | -5% |
| O=C(O)c1nc2ccccc2nc1C(=O)O | 0.7% | i | i | 1e-09 | -1% |
| Cc1cc(=O)n2nc(N3CCC(C(=O)NCCc4ccccc4)CC3)sc2n1 | 2.9% | i | i | 1.9e-08 | -1% |
| CCN(Cc1ccccc1)C(=O)Cn1cnc2c1c(=O)n(C)c(=O)n2C | -0.5% | i | i | 1.1e-08 | -8% |
| Cn1c(NCCN2CCOCC2)nc2c1c(=O)n(Cc1cccc(Cl)c1)c(=O)n2C | 3.1% | i | i | 1e-09 | -16% |
| COc1cccc(C(c2nnnn2CS(=O)(=O)c2ccc(C)cc2)N2CCN(C)CC2)c1OC (stereo not drawn) | -0.7% | i | i | 1.1e-08 | 13% |
| Clc1cccc(-c2nnc(-c3ccccc3)o2)c1 | -1.3% | . | . | . | ? |
| O=C(Nc1cccc(Br)c1)c1ccn[nH]1 | 1.6% | i | i | 2e-08 | -7% |
| O=C(O)CSCC(=O)Nc1cc(C(F)(F)F)ccc1Cl | 0.7% | i | i | 1e-09 | 0% |

Compounds listed so far that contain a CF3 group, in the order listed:
| molecule | AID923 | A488 fluor | Resorufin fluor | A647 fluor | TSHR agonist |
| --- | --- | --- | --- | --- | --- |
| O=C(NCCCN1CCN(c2ccccc2)CC1)Nc1ccccc1C(F)(F)F | 1.4% | i | i | 2.3e-08 | 3% |
| CCCCn1c(=O)n(C)c(=O)c2c(C(F)(F)F)cc(-c3ccncc3)nc21 | -3.5% | i | i | 3.8e-08 | ? |
| O=C(O)CSCC(=O)Nc1cc(C(F)(F)F)ccc1Cl | 0.7% | i | i | 1e-09 | 0% |

High-throughput results: PubChem, National Center for Advancing Translational Sciences (NCATS)

Not all compounds are listed, so the mix of outcomes need not match the whole.
